TAR Tat displ: HIV-1 TAR-Tat binding disruption; HIV-1 TAR RNA, Tat peptide displacement FRET; active compounds read high; z-score (test concentration not listed); 100,000 tested, 0.6% active; AID 1259389;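 note: score is relative to mean and SD of negative controls; some compounds called inactive have numbers as strong as hits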
CDC25B-CDK2 inh: human CDC25B-CDK2/CyclinA binding inhibition; P30305+P24941; 94,000 tested, 0.72% active; z-score (concentration not given with the values); AID 1259370; HTRF CDC25B-CDK2/CyclinA binding, anti-His/anti-Flag; active compounds read high;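 note: score is relative to mean and SD of negative controls; strong numbers were not always called active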
* = called active by the depositor; . = no result given; & = joins results of further samples.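 Rule for the calls: active = z-score from 3 up in half or more of its runs; inactive = the rest.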 These rows are one share of the data; the hit share may differ from the screen's.

SMILES | TAR Tat displ | CDC25B-CDK2 inh
COc1ccc(C(Cc2ccccc2)NC2CN3CCC2CC3)cc1 (stereo not given) | -0.29 | -2.7
CC1CN=C(Nc2cccc3ccccc23)S1 (stereo not given) | . | -0.22
Cc1nc(SCc2c(F)cccc2Cl)nc(OC(=O)N(C)C)c1C | . | -1.7
Cc1[nH]nc2c1C(c1ccccc1Br)SCC(=O)N2 (stereo not given) | 1.1 | -1.1
Cn1cncc1C(O)c1ccccc1 (stereo not given) | 1.8 | -1.5
COc1ccc(C2C(C#N)=C(N)Oc3c2c(=O)oc2ccccc32)c(OC)c1 (stereo not given) | . | -0.12
Nc1ccc(Br)cc1C(=O)c1ccccc1 | 1.8 | 0.57
CC(C)=C1CCC23COC(C2)C(O)(C(=O)O)CCC13 (stereo not given) | 3.1 | .
Cc1nn(-c2ccc(F)cc2)c2c1C(c1ccsc1)SCC(=O)N2 (stereo not given) | 1.1 | -2.1
C[C@]12CCC3C(CC[C@H]4C[C@H](O)CC[C@]34C)C1CC[C@@H]2C(=O)CO (stereo not given in full) | . | -1.5
N#CC(=C=N)/C=C(/Br)C=C(C#N)C#N | . | 2.4
Cc1nc(S(=O)(=O)N2CCCCC2c2cccnc2)cn1C (stereo not given) | . | -1.2
CC1=CC(=O)C2=C(C)C[C@H](O)[C@@H]3[C@H](OC(=O)[C@H]3C)[C@H]12 | 0.09 | .
COc1ccccc1CN1CCN(Cc2cc(Br)ccc2O)CC1 | 1.1 | 2.3
CCCCN=C(N)N[N+](=O)[O-] | . | -1.3
COc1ccc(OC)c(C(c2c(O)c3ccccc3oc2=O)c2c(O)c3ccccc3oc2=O)c1 | . | -2.6
Cc1ccc(C)c(C2SCC(=O)Nc3c2c(C)nn3-c2ccccc2)c1 (stereo not given) | -0.63 | -1.9
CC12CCC3C(CCC4(O)CC(O)CCC34/C=N/NC(N)=O)C1(O)CCC2C1=CC(=O)OC1 (stereo not given) | 12 | .
Cc1ccc(C2SCC(=O)Nc3c2c(C)nn3-c2ccc(Cl)cc2)cc1 (stereo not given) | 0.57 | -1
CC1CC2C/C(=N\O)CC1N(C)C2 (stereo not given) | . | -1.7
OCCN1CCN(Cc2ccccc2F)CC1 | . | -2.6
CC(=O)c1c(O)c(C)c(O)c(Cc2c(O)c3c(c(C(=O)/C=C/c4ccccc4)c2O)OC(C)(C)C=C3)c1O | 2.7 | -0.75
Cc1cc(NC(=O)Oc2ccccc2)no1 | 1.2 | -1.1
CC12CN3CC(c4ccccc4)(CN(C1)C3c1ccccn1)C2=O (stereo not given) | 2 | 1.2
Nc1c(C(=O)NCc2ccccc2)c2nc3ccccc3nc2n1Cc1ccco1 | -4.3 | 12*
O=c1ccc2[nH]cc(C3=CCNCC3)c2[nH]1 | . | 2.9
Cc1cc(C)c(C2=NCCN3CCNC3(C(F)(F)F)C2)c(=O)[nH]1 (stereo not given) | . | -0.34
O=C(NCc1ccccc1)N1Cc2ccccc2-n2cccc2C1c1ccccc1 (stereo not given) | -0.73 | .
CCOC(=O)C1CC2CCCN2C12C(=O)N(Cc1ccccc1)c1ccccc12 (stereo not given) | 0.65 | .
Cc1c(C(=O)O)ncn1Cc1ccc(Cl)cc1 | . | -1.5
Cc1ccccc1C1NCc2ccccc2-n2cccc21 (stereo not given) | 0.7 | 0.11
c1ccc2c3c([nH]c2c1)CNCC3 | 1.8 | .
CN1CCc2cc3c(c4c2[C@H]1Cc1ccccc1-4)OCO3 | 0.98 | .
COC(=O)CC1NC2CCCCC2NC1=O (stereo not given) | . | -0.03
COc1ccc(C2N3CCCN23)c(OC)c1 (stereo not given) | 1.4 | -1.7
Cc1[nH]nc2c1C(c1cccc(Br)c1)SCC(=O)N2 (stereo not given) | -1.2 | -1.4
O=[N+]([O-])c1ccc(CS(=O)(=O)C(Cl)(Cl)Cl)o1 | . | 0.39
O=C(Cc1scnc1-c1cccs1)N1CCN(Cc2ccc3c(c2)OCO3)CC1 | -0.89 | -0.62
Cc1ccc(-n2nc(C)c3c2NC(=O)CSC3c2ccc3c(c2)OCO3)cc1Cl (stereo not given) | 2.2 | -1.4
C1=C(c2c[nH]c3ccccc23)CCNC1 | -1.7 | -1.8

Some values from the list.
Reading of c1ccc2c3c([nH]c2c1)CNCC3 under TAR Tat displ: 1.8
Reading of Cc1ccc(-n2nc(C)c3c2NC(=O)CSC3c2ccc3c(c2)OCO3)cc1Cl (stereo not given) under TAR Tat displ: 2.2
Reading of COc1ccc(C2N3CCCN23)c(OC)c1 (stereo not given) under CDC25B-CDK2 inh: -1.7
Reading of O=C(Cc1scnc1-c1cccs1)N1CCN(Cc2ccc3c(c2)OCO3)CC1 under CDC25B-CDK2 inh: -0.62

Continued.
SMILES | TAR Tat displ | CDC25B-CDK2 inh
O=[N+]([O-])/C=C/c1cccc(F)c1 | . | -1.2
Nc1ccc(S(=O)(=O)N2CCCCC2c2cccnc2)cc1 (stereo not given) | 1.1 | -0.54
O=P(O)(O)C(Cl)(Cl)P(=O)(O)O | . | -2.1
CN(C)C1=NC(N(C)C)=NP(N(C)C)(N(C)C)=N1 | . | -2.4
Cc1nc(-c2ccc(Cl)cc2)nc(OC(=O)N(C)C)c1C | . | -1.2
Cc1ccc(CNC2=NCCS2)cc1 | . | 1.1
CCOc1ccccc1C1N(c2cc(C)on2)C(=O)C2CCCN21 (stereo not given) | . | -1.5
CCSc1nnc([C@@H](N)Cc2ccccc2)o1 | -0.82 | -2.5
CCC(COC(=O)c1cc(OC)c(OC)c(OC)c1)(c1ccccc1)N(C)C (stereo not given) | 0.47 | .
CSc1ccc(C2SCC(=O)Nc3c2c(C)nn3-c2ccc(Cl)cc2)cc1 (stereo not given) | 0.45 | -1.7
Cc1cc(CN(C)C)c(OC(=O)N(C)C)cc1C | 2.1 | -1.1
Cc1nnc2ccc(N3CCN(C)CC3)nn12 | 1.1 | 0.66
Cc1ccc(-n2nc(C)c3c2NC(=O)CSC3c2cccs2)cc1 (stereo not given) | -0.33 | -0.67
COc1cc(-c2cc(NC(=O)CCc3nc(C4=CCN(C)CC4)no3)on2)cc(OC)c1OC | . | -1.4
O=C(O)c1[nH]c2ccc(Cl)cc2c1CC(=O)N1CCN(C2CCCCC2)CC1 | . | -2
O=c1cccc2n1CC1CC2CN(Cc2nnc(-c3cccc(Br)c3)o2)C1 (stereo not given) | 1.6 | -1.4
CNC(=O)Oc1cccc2ccccc12 | . | 1.2
Cc1nn(-c2ccc(F)cc2)c2c1C(c1ccc(O)cc1)SCC(=O)N2 (stereo not given) | -0.46 | -2.3
CCC(=O)N1N=C2C3CCN(CC3)C2C1c1cc(OC)ccc1OC (stereo not given) | 1.5 | 0
COc1ccc(OC)c(C2C3C(=NN2C(C)=O)C2CCN3CC2)c1 (stereo not given) | 0.97 | 1.8

Compound profiles, from the list above.
Entry for COc1ccc(OC)c(C2C3C(=NN2C(C)=O)C2CCN3CC2)c1 (stereo not given) = TAR Tat displ = 0.97; CDC25B-CDK2 inh = 1.8
Entry for COc1cc(-c2cc(NC(=O)CCc3nc(C4=CCN(C)CC4)no3)on2)cc(OC)c1OC = TAR Tat displ = .; CDC25B-CDK2 inh = -1.4

Returning to the listing, repeating the 4 entries before the break.
SMILES | TAR Tat displ | CDC25B-CDK2 inh
CNC(=O)Oc1cccc2ccccc12 | . | 1.2
Cc1nn(-c2ccc(F)cc2)c2c1C(c1ccc(O)cc1)SCC(=O)N2 (stereo not given) | -0.46 | -2.3
CCC(=O)N1N=C2C3CCN(CC3)C2C1c1cc(OC)ccc1OC (stereo not given) | 1.5 | 0
COc1ccc(OC)c(C2C3C(=NN2C(C)=O)C2CCN3CC2)c1 (stereo not given) | 0.97 | 1.8
COc1cc(C(c2c(O)c3ccccc3oc2=O)c2c(O)c3ccccc3oc2=O)ccc1O | . | -5.4
O=C1N(c2cccc(Cl)c2)C(c2cccnc2)N2CCCN12 (stereo not given) | 1.6 | -2
CCN(CC)CCC(=O)OC1CC2CCC(C1)N2C (stereo not given) | . | -0.23
CC(=O)CC1CCCCN1 (stereo not given) | 0.97 | .
NNC(=O)c1ccc(O)cc1 | . | -1.7
O=C(c1ccco1)c1cn(CCCOc2ccccc2Cl)c2ccccc12 | -0.12 | 0.51
C=CCOc1ccc(C2SCC(=O)Nc3c2c(=O)[nH]n3C(C)CC)cc1 (stereo not given) | -0.88 | 0.89
O=C1C2C3C=CC(O3)C2C(=O)N1c1ccc(Br)cc1 (stereo not given) | . | -3.1
O=C(Nc1ccc(Cl)cc1)N1Cc2ccccc2-n2cccc2C1c1cccs1 (stereo not given) | -0.49 | .
CCCCn1c(C)c(C(C)=O)c2cc(O)ccc21 | . | -0.46

For convenience, some entries already given:
SMILES | TAR Tat displ | CDC25B-CDK2 inh
O=C1C2C3C=CC(O3)C2C(=O)N1c1ccc(Br)cc1 (stereo not given) | . | -3.1
O=C(Nc1ccc(Cl)cc1)N1Cc2ccccc2-n2cccc2C1c1cccs1 (stereo not given) | -0.49 | .

(list continues)
SMILES | TAR Tat displ | CDC25B-CDK2 inh
C=C(C)[C@@H]1[C@H]2OC(=O)[C@@H]1[C@]1(O)C[C@H]3O[C@]34C(=O)O[C@H]2[C@]14C | 1.7 | .
NCCc1c[nH]c2ccccc12 | 0.19 | -0.02
CCSc1nnc(C2CCNCC2)o1 | 2.6 | -1.9
CCC1(CCC(C)C)C(=O)NC(=O)N=C1O (stereo not given) | . | -1.8
CC(C)C12CN3CC(C(C)C)(CN(C1)C3c1ccccn1)C2=O (stereo not given) | 1.6 | -1.8
CC(=O)OC1CCC2C3CCC4CC(=O)[C@H](OC(C)=O)CC4(C)C3CCC12C (stereo not given in full) | . | -1.1
CN1CCN(c2cn[nH]c(=O)c2Cl)CC1 | 1.6 | -1.2
Cc1ccc(Oc2c(C)nc(-c3ccccc3)nc2OC(=O)N(C)C)cc1 | . | -1
Cc1c(C(c2ccc(O)cc2)c2c(O)c3ccccc3oc2=O)c(=O)n(-c2ccccc2)n1C (stereo not given) | . | -1.5
O=C(O)c1cn(Cc2ccc(Br)cc2)c2ccccc12 | 0.72 | -0.27
COc1cc2c(cc1OC)CC(C)(C)NC2 | . | -1.5
CCC1c2cccn2-c2ccccc2CN1C(=O)Nc1ccccc1 (stereo not given) | 0.17 | .
CCn1cc(C(=O)N2CCC3(CC2)OCCO3)c(=O)c2cc(S(=O)(=O)N3CCCC3)ccc21 | . | -1.2
Cc1nn(-c2nc3ccccc3s2)c2c1C(c1cccc(F)c1)SCC(=O)N2 (stereo not given) | 1.2 | -2.5
O=S(=O)(F)Cc1ccccc1 | 1.9&1.1 | .
CCCC(C)n1[nH]c(=O)c2c1NC(=O)CSC2c1ccc(OC)cc1 (stereo not given) | 1.9 | -1.4
COc1cccc(-n2c(/C=C/c3ccco3)nc3ccccc3c2=O)c1 | -11 | -1.8
CC1CN(CCC(=O)Nc2ccc(Cl)cc2C(=O)c2ccccc2)CC(C)O1 (stereo not given) | . | 0.69
N#C/C(=C\c1cnc[nH]1)S(=O)(=O)c1cccs1 | . | 0.1
O=C1CC2CCCC(C1)N2Cc1ccccc1 | . | -1.5
Cn1nc(-c2ccccc2)nc2c(=O)n(C)c(=O)nc1-2 | -4.7 | 5.8*
NC(=Nc1ccc(F)c(F)c1)N[N+](=O)[O-] | . | -1.5
CC(=O)OC1CC[C@@]2(C)C(CCC3C2CC[C@]2(C)C(C4=CC(=O)OC4)C(OC(C)=O)CC32O)C1 (stereo not given in full) | 2 | .
Cc1ccc(-n2nc(C)c3c2NC(=O)CSC3c2ccc(N(C)C)cc2)cc1 (stereo not given) | 1.1 | -2.3
CC(C)(NO)C(=O)c1ccccc1 | . | -0.67
CN(C)C(=O)Oc1cc(CSC(C)(C)C)nc(-c2cccs2)n1 | . | -1.5
